Compound activity from PubChem.
nsP2pro inh: CHIKV nsP2 protease inhibition, primary qHTS; actives 1.1% (n = 31,000); AID 1964107; Q8JUX6; FRET peptide cleavage, nsP2pro, fluorescence 1 h; Potency, µM (series often up to 24.9 µM), inactives show top-dose activity change, negative = inhibition, most hits filed as inhibitors; active means well fitted inhibition curve with a large enough effect; inconclusive means small, poorly fitted or top-dose-only effect; inactive means no such curve, though single readings can be large or run the other way; further: nearly all actives have a fitted effect of over 60% in size; a reference inhibitor and vehicle were the controls
Target sequence (Q8JUX6 whole entry, looked up): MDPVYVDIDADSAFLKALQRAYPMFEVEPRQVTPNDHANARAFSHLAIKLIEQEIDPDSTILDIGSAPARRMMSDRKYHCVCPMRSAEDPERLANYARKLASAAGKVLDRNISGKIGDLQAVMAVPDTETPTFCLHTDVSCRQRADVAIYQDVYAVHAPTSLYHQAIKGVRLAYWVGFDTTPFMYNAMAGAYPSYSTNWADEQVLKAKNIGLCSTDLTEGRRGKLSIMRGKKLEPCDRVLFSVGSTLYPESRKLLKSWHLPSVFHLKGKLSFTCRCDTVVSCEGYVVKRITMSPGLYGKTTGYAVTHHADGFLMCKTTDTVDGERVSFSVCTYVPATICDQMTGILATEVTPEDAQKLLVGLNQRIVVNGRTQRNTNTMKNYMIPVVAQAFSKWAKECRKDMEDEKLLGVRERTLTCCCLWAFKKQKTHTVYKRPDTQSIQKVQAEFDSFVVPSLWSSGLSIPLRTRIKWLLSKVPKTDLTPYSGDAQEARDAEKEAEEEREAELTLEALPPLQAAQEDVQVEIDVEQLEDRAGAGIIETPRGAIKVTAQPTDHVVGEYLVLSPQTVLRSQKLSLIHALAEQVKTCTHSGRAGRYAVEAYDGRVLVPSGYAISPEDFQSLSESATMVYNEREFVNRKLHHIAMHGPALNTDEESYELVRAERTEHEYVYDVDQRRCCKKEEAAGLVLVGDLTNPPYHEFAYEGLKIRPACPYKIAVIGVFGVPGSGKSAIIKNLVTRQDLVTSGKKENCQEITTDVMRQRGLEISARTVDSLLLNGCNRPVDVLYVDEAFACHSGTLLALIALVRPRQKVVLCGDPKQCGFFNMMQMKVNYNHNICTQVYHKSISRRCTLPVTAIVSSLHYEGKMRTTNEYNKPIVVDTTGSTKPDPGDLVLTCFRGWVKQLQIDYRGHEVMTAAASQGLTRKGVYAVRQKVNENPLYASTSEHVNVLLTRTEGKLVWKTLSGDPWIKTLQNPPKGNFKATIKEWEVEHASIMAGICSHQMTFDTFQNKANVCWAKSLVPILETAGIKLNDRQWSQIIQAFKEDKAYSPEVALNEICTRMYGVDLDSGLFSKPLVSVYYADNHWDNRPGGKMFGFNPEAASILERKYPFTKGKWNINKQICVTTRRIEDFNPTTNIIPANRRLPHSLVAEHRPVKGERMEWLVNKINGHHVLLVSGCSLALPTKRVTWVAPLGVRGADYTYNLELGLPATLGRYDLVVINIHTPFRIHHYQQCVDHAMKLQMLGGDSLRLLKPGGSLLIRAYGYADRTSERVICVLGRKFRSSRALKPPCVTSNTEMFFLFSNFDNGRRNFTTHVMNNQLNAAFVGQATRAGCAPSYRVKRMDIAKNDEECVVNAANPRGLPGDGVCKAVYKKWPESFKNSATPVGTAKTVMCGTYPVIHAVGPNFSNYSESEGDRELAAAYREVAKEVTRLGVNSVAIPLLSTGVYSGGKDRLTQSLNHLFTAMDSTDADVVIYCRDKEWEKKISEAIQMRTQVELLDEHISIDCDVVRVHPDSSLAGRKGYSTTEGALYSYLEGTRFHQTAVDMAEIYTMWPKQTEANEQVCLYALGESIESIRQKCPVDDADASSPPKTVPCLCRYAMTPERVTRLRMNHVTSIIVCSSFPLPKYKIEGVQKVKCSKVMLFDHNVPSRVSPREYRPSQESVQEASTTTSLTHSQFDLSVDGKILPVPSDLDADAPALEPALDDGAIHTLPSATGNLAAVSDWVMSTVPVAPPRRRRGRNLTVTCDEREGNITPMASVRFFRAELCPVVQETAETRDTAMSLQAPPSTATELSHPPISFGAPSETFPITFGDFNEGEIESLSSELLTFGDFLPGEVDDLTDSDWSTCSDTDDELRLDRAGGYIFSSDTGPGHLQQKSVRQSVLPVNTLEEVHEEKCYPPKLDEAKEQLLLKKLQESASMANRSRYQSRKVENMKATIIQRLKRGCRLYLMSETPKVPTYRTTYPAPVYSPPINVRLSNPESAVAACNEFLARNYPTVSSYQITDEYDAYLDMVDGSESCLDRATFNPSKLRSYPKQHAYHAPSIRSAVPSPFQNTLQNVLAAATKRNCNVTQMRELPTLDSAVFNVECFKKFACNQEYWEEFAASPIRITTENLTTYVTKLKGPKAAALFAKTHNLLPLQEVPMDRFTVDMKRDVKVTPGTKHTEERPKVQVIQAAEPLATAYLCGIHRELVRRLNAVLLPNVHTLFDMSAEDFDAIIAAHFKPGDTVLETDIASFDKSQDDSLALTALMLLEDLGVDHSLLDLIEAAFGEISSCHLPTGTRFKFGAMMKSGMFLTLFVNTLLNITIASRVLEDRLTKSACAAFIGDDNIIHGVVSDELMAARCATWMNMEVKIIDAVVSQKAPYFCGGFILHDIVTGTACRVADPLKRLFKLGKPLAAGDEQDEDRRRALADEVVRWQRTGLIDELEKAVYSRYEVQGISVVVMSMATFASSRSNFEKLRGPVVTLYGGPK
Starred values were filed as active, the others as inactive; i = inactive; ? = inconclusive; & = joins results of further samples; [ ] = remark or other dose. On the % scale 0 is the no-effect control and ±100 the full control effect; potency means the concentration at half of the fitted maximal effect.

SMILES	nsP2pro inh
COc1ccc(OC)c(NC(=O)[C@H](CSCc2ccccc2)N2Cc3ccccc3C2=O)c1	-12%
CCOc1ccc(CCNC(=O)c2c(C)oc3ncn(C)c(=O)c23)cc1	-10%
CC(=O)OC1C(c2ccccc2)CCC(c2ccccc2)C1OC(C)=O (configuration not stated)	?
Cc1[nH]n(-c2ccccc2)c(=O)c1C(c1cc(Cl)ccc1O)c1c(C)[nH]n(-c2ccccc2)c1=O	-27%
CCN1CCN(Cc2ccc(NC(=O)c3ccc(C)c(NC(=O)c4cncc(-c5cccs5)c4)c3)cc2C(F)(F)F)CC1	80%[activator]
O=C1c2ccccc2C(=O)N1C1CCCCC1	2%
Cc1cnc(C2CCOCC2)n1C1CCCN(C(=O)c2cccs2)C1 (configuration not stated)	-1%
COc1ccc(NC(=O)c2sc3nc4c(cc3c2N)CCCCCC4)cc1Cl	-8%
Cc1cccc(NC(=O)N2CCCC(Cc3noc(-c4cnccn4)n3)C2)c1 (configuration not stated)	i
CCc1ccccc1N(C)C(=O)Cc1c(C(=O)O)c(C)cn1C	-13%
CC(=O)CCC1=C(C)C(O[C@@H]2O[C@H](CO)[C@@H](O)[C@H](O)[C@H]2O)C(O)CC1(C)C (some centres not stated)	57%[activator]
OCCN1CCN(CCCN2c3ccccc3C=Cc3ccccc32)CC1	8.8µM*
O=C(NCc1cccnc1)C1CCN(Cc2cc3ccccc3n2Cc2cccc(Cl)c2)CC1	28%
COc1ccc(C(=O)N2CCCCC(NC(=O)NCc3ccco3)C2)cc1 (configuration not stated)	-17%
Cc1cccc(NC(=O)C(NS(=O)(=O)c2ccc3c(c2)oc(=O)n3C)C(C)C)c1 (configuration not stated)	-19%
C#CC1(O)CCC2C3CCc4cc(O)ccc4C3CCC21C (configuration not stated)	?
CCOC(=O)c1c(-c2ccccc2)oc2ccc(NS(=O)(=O)c3cc(C)c(C)cc3C)cc12	-21%
N=c1c2c(ccn1CCCCc1ccccc1)Oc1ccc3ccccc3c1C2c1ccccc1 (configuration not stated)	1%
CCS(=O)(=O)N[C@@H]1CN(C2CCOCC2)C[C@H]1CN(C)C	i
O=C(NC1CCCCC1)C1(CCO)CC12CCN(c1ncccn1)CC2 (configuration not stated)	5%
Cc1ccccc1CN1C(=O)C(C)N=C(c2ccccc2)c2ccccc21 (configuration not stated)	-8%
CCn1cnnc1CC1CCN(C(=O)C2CCN(Cc3nc(-c4cccc(C)c4)oc3C)CC2)CC1	i
C[S+](=O)([O-])N1Cc2ccccc2OC2(CCN(C(=O)c3cccc4[nH]ccc34)CC2)C1	-10%
COc1ccc(C(=O)Nc2ccc(-c3nc4ccccc4[nH]3)cc2)cc1Br	-14%

Four records picked at random from the list so far, as already listed:
SMILES	nsP2pro inh
CCOC(=O)c1c(-c2ccccc2)oc2ccc(NS(=O)(=O)c3cc(C)c(C)cc3C)cc12	-21%
O=C(NCc1cccnc1)C1CCN(Cc2cc3ccccc3n2Cc2cccc(Cl)c2)CC1	28%
COc1ccc(C(=O)N2CCCCC(NC(=O)NCc3ccco3)C2)cc1 (configuration not stated)	-17%
C[S+](=O)([O-])N1Cc2ccccc2OC2(CCN(C(=O)c3cccc4[nH]ccc34)CC2)C1	-10%

(further entries)
SMILES	nsP2pro inh
O=C(Nc1nc(-c2ccccc2)cs1)c1ccncc1NS(=O)(=O)c1ccc(N2CCCC2=O)cc1	i
O=C(COc1cc(Cl)ccc1Cl)Nc1ccc(Cl)cc1C(=O)c1ccccc1	-28%
Cc1ccc(S(=O)(=O)c2nnn3c2nc(N2CCC(C)CC2)c2cc(Cl)ccc23)cc1C	-19%
CC(C)=CCn1c(-c2cc(C)oc2C)cn2cc(C(=O)N(C)CC(C)C)nc2c1=O	-15%
Cc1cc(Nc2cccc(Cl)c2)nc2ccc(NC(=O)c3cccnc3)cc12	-4%
CCCCNC(=O)CSc1nc2cc3c(cc2c(=O)n1Cc1ccc(C(=O)NCCc2ccc(OC)c(OC)c2)cc1)OCO3	-12%
CCN1CCN(c2csc3ccc(Cl)cc3c2=O)CC1	-8%
CC(C)(C)CC(=O)N1CCN2C(=O)c3ccc(Cl)cc3NC(=O)[C@H]2C1	2%[39.2 µM]
COc1cc(-c2ccc3ncnc(NCc4ccc(C)o4)c3c2)cc(OC)c1OC	i
CCOc1ccc(OCC)c(NC(=O)CCC(=O)N2CCOc3ccccc32)c1	-5%
Cc1ccc(-c2nnc(Nc3ccc(Br)cc3)c3ccccc23)cc1S(=O)(=O)N1CCOCC1	-19%
Cc1cc2c(s1)c1cnn(Cc3ccccc3Cl)c(=O)c1n2C	i
O=C(COCc1cc(-c2ccc(F)cc2)on1)Nc1cccc(Cl)c1Cl	-24%
CN(C)C1(CNC(=O)c2ccc(OC3CCN(C(=O)C4CC4)CC3)cc2)CCCCC1	?
COc1ccc(Nc2cnc3ccc(-c4ccccc4)nn23)cc1	?
C/C(=C\CCC(C)CCO)C(=O)OC[C@H]1O[C@@H](O[C@@H]2OC=C(C(=O)O)[C@H]3CC[C@](C)(O)[C@@H]23)C(O)[C@@H](O)C1O (some centres not stated)	365%[activator][10 µM]
CCn1c(C)c(C)c2cc(C(=O)NCCc3ccc(C)cc3)ccc21	-14%
COc1cccc(CNc2ccc(S(=O)(=O)Nc3cccc4ccccc34)cc2)c1O	?
CC1=C2C(=O)C=C(CO)[C@@H]2[C@H]2OC(=O)[C@H](C)[C@@H]2[C@@H](O)C1	?
O=C(Oc1ccccc1)c1ccccc1O	2%
CCC1CCCCN1CCCNC(=O)c1ccc2c(c1)c(C)c(C)n2CC (configuration not stated)	-5%
COc1ccc(C)cc1NC(=O)C1CCCN(c2cn[nH]c(=O)c2)C1 (configuration not stated)	i
Cc1ccc(S(=O)(=O)c2ncccc2[N+](=O)[O-])cc1	?
C/C=C/C=C/C(=O)N1CC[C@]23c4ccccc4N[C@H]4N(C)c5cccc6c5[C@@]42CCN([C@H]6C2OC2(C)C)[C@H]13 (some centres not stated)	1%[10 µM]
Cn1cc(CN2CCCC(COc3ccccc3C(=O)N3CCCCC3)C2)c2ccccc21 (configuration not stated)	2%
Cn1ccc(NC(=O)c2cc(Oc3ccc(C(=O)N4CCC4)c(F)c3)c3c(c2)OC(C)(C)C3)n1	-4%
C(=C\c1ccncc1)/c1ccccc1	21%[39.2 µM]
CCN(C(=O)CCS(=O)(=O)c1cc2[nH]c(=O)c(=O)[nH]c2cc1C)c1ccccc1	-20%
CCOc1ccc(N2CC(c3nc(-c4cc(OC)c(OC)c(OC)c4)no3)CC2=O)cc1 (configuration not stated)	-18%
O=C(c1ccccc1F)N1CCC(N2CCCOC2=O)CC1	-6%
COC[C@]1(O)CCN(C(=O)c2oc(COc3ccccc3)cc2C)CC1(C)C	i
O=S(=O)(c1ccc2c(c1)OCCCO2)N1CCN(S(=O)(=O)c2c(F)cccc2F)CC1	-1%
Nc1ccn([C@@H]2C(F)=C(CO)[C@@H](O)[C@H]2O)c(=O)n1	-8%
CC(=O)c1ccc(NC(=O)c2sc(-n3nc(C)c(CCC(C)C)c3C)nc2C)cc1	-21%
NC(=O)C1(N2CCCCC2)CCN(CCCN2c3ccccc3CCc3ccc(Cl)cc32)CC1	25%
COc1ccc(N2CCN(C(CNC(=O)CC(C)C)c3ccc4c(c3)OCO4)CC2)cc1 (configuration not stated)	-9%

Some of the entries above, reformatted.
| Structure | nsP2pro inh |
| --- | --- |
| CCOc1ccc(N2CC(c3nc(-c4cc(OC)c(OC)c(OC)c4)no3)CC2=O)cc1 (configuration not stated) | -18% |
| O=C(c1ccccc1F)N1CCC(N2CCCOC2=O)CC1 | -6% |
| COC[C@]1(O)CCN(C(=O)c2oc(COc3ccccc3)cc2C)CC1(C)C | i |
| O=S(=O)(c1ccc2c(c1)OCCCO2)N1CCN(S(=O)(=O)c2c(F)cccc2F)CC1 | -1% |
| Nc1ccn([C@@H]2C(F)=C(CO)[C@@H](O)[C@H]2O)c(=O)n1 | -8% |

Looked up above:
nsP2pro inh with NC(=O)C1(N2CCCCC2)CCN(CCCN2c3ccccc3CCc3ccc(Cl)cc32)CC1 stands at 25%
nsP2pro inh with Cn1ccc(NC(=O)c2cc(Oc3ccc(C(=O)N4CCC4)c(F)c3)c3c(c2)OC(C)(C)C3)n1 stands at -4%
nsP2pro inh with O=S(=O)(c1ccc2c(c1)OCCCO2)N1CCN(S(=O)(=O)c2c(F)cccc2F)CC1 stands at -1%
nsP2pro inh with COc1ccc(N2CCN(C(CNC(=O)CC(C)C)c3ccc4c(c3)OCO4)CC2)cc1 (configuration not stated) stands at -9%
nsP2pro inh with CCN(C(=O)CCS(=O)(=O)c1cc2[nH]c(=O)c(=O)[nH]c2cc1C)c1ccccc1 stands at -20%

The list goes on:
SMILES	nsP2pro inh
O=C(c1ccc(-c2cc(O)c3ncccc3c2)cc1)N1CCNCC1	i
Cc1nnc([C@@H]2CC(F)(F)CN2C(=O)c2cccc3[nH]ccc23)o1	i
CCOC(=O)c1c(C)sc(-c2c(-c3cc(C)ccc3C)[nH]c3c2c(=O)[nH]c(=O)n3C)c1O	-5%
CN1CCCC2(CCN(c3nc4c(cc3C(N)=O)CCC4)C2)C1=O (configuration not stated)	-19%
COc1ccc(OC)c(-c2nnc3n2N=C(c2ccc(OC)c(OCC4CC4)c2)CS3)c1	i
CC(=O)c1ccc(NC(=O)OC[C@H]2C[C@@H]3CCN2C[C@@H]3c2cc(-c3cccs3)nn2C)cc1	-6%
Cc1ccc(N2CCN(c3ncnc4onc(-c5ccc(F)cc5)c34)CC2)c(C)c1	-24%
Cc1cn2nc(C(=O)NCc3cccnc3)cc2c(=O)[nH]1	i
COc1ccc(CN(C(=O)[C@@H](N)Cc2c(C)cc(C(N)=O)cc2C)[C@@H](C)c2ncc(-c3ccccc3)[nH]2)cc1C(=O)O	-3%
Cc1cc2sc(NC(=O)Cc3ccccc3)nc2cc1Cl	2%
NC(=O)c1cccc2cn(-c3ccc([C@@H]4CCCNC4)cc3)nc12	7%&19%&23%&30%
Cc1cc(NC(=O)CSc2nc(-c3cccc(F)c3)nc3c2c(=O)n(C)c(=O)n3C)no1	-16%
CNC(=O)[C@@H]1CCCC[C@@H]1C(=O)N1CCn2nc(Cc3ccccc3)cc2C1	i
Cn1cc(S(=O)(=O)c2cccc(Cl)c2)c(=O)c2cc(F)c(N3CCN(c4ccc(F)cc4)CC3)cc21	-16%
O=c1c2nc(-c3ccoc3)ccc2ncn1Cc1ccccc1	0%[39.2 µM]
COc1ccc(C(=O)c2ccc(-c3no[n+]([O-])c3C#N)cc2)cc1	i
CCOc1ccccc1O[C@H](c1ccccc1)[C@H]1CNCCO1	-1%
O=C(Nc1cccc2cccnc12)c1cccc2ccccc12	-21%
COCCN(CC1CCN(Cc2ccccc2F)CC1)C(=O)c1cc[nH]c1C	-15%
CC1(C)CN(C(=O)c2ccc(-c3cccc4nc(NC(=O)C5CC5)nn34)cc2)C1	9%
Cc1noc(C)c1CN1CCOC[C@H](O)C1	i
CN(C)CCOc1cc(NS(=O)(=O)c2c(Cl)cc(C(F)(F)F)cc2Cl)ccc1Cl	?
COc1cc(NS(=O)(=O)c2ccc(-c3cc(C)no3)cc2)cc(OC)c1	-7%
COc1cc2c(Nc3ccc(Br)cc3F)ncnc2cc1OCC1CCN(C)CC1	225%&2%[activator]
CC1CCN(S(=O)(=O)c2ccc3nc(-c4cccnc4)cc(C(=O)NCCCOC(C)C)c3c2)CC1	-18%
Cc1cnc(CC2CCN(C(=O)Nc3ccc4c(c3)OCCO4)C2)n1C1CC1 (configuration not stated)	i
OC[C@@H]1CNC[C@H]1C1CCN(Cc2ccncc2F)CC1	-7%
COc1cccc(CNC(=O)Cn2nc3c(cc2=O)CCCC3)c1OC	-19%
O=C(c1n[nH]c2ccccc12)N1CCC(Cc2nc(-c3ccncc3)n[nH]2)CC1	i
Cn1nc(C2CC2)cc1NC(=O)C1CCCC1	4%[39.2 µM]
Cc1cc(-c2nnc3n2CCCCC3)c(C)n1-c1ccc(Cl)c(Cl)c1	-2%
COc1ccc(NC(=O)CCS(=O)(=O)c2cc(Br)cc3c2N(C(C)=O)CC3)c(OC)c1	?
CC(=O)Nc1sc2c(c1-c1ccc(C)cc1)CCNC2	-2%
CCOC(=O)C1CCN(C(=O)Cn2ncc3c4ccccc4n(Cc4ccccc4F)c3c2=O)CC1	-1%
Cc1oc(-c2ccc(C(=O)NCc3ccc(F)cc3)cc2)nc1CS(=O)c1ccccc1 (configuration not stated)	-10%
COc1ccc(C(=O)CC2(O)C(=O)Nc3c(C)cccc32)c(OC)c1OC (configuration not stated)	-9%
COc1ccccc1OC1(C(=O)O)CCN(Cc2cnn(C(C)C)c2)CC1	-6%
CC(C)(C)CC(=O)NC[C@H]1OC[C@@H](NC2CCCC2)[C@@H]1O	i
CC1=CC(=O)C(=C(C)C)CC2C1CCC2(C)O (configuration not stated)	6%
CC1(C)CC(=O)C2=C(C1)NC(=S)NC2c1cccc(O)c1 (configuration not stated)	1%
CO[C@H]1C[C@@H]2CC[C@@H](C)[C@@](O)(O2)C(=O)C(=O)N2CCCC[C@H]2C(=O)O[C@H]([C@H](C)C[C@@H]2CC[C@@H](OP(C)(C)=O)[C@H](OC)C2)CC(=O)[C@H](C)/C=C(\C)[C@@H](O)[C@@H](OC)C(=O)[C@H](C)C[C@H](C)/C=C/C=C/C=C/1C	-10%[10 µM]
CCOC(=O)c1ccc(NC(=O)CN(Cc2ccc(C)cc2)S(=O)(=O)c2ccc(C)cc2)cc1	-4%
N#Cc1cccc(-c2ccc(NC(=O)c3cccs3)cn2)c1	1%
COc1ccc(CNC(=O)C[C@@H]2O[C@H](Cn3cc(CN(C)Cc4ccccc4)nn3)[C@@H](O)[C@H]2O)cc1	-9%
N#Cc1ccc(NC(=O)Nc2nnc(-c3ccncc3)s2)cc1Br	-10%
CN(Cc1ccccc1)Cc1cn([C@H]2CO[C@H]3[C@@H]2OC[C@@H]3NC(=O)CCC(=O)O)nn1	i
CCOC(=O)c1c(S(=O)(=O)N2CCC(C(=O)N3CCN(c4cc(C)ccc4C)CC3)CC2)c(C)n(C)c1C	-10%
Cc1ccc(C)c(CN2CCC(CNC(=O)c3cc4ccc5cccnc5c4[nH]3)CC2)c1	17%

Not all compounds are listed, so the mix of outcomes need not match the whole.
